Mtb betalactam: beta-lactam sensitization of Mtb H37Rv | M. tuberculosis H37Rv growth with meropenem, percent inhibition; hits of this screen are not shown here | inhibition, % at 25 µM | 0.27% of 330,000 active;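 active = about 74% or more and at least 40 points above the plate without the antibiotic, then above 30% in a dose series; inconclusive = first-round hits that could not be retested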;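 note: growth measured after seven days incubation then overnight dye step; 0% = bacteria only wells and 100% = bacteria with antibiotic; twin plates without the antibiotic show which effects depend on it; some results filed as inactive read as strong as hits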
YopH PTP inh: YopH (Yersinia) phosphatase inhibition. fluorescence Ex485/Em525. inhibition, %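 (about 10 µM by stock and volumes)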. 0.16% of 140,000 active. AID 898;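 active = inhibition of 50% or more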;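 note: controls were vehicle for no effect and minimum signal wells for full effect; inactives centre near -20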
RecA intein inh: blocks M. tuberculosis RecA intein splicing; P9WHJ3; cell-free RecA intein splicing, fluorescence; inhibition, %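 (about 9 µM by stock and volumes)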; 0.75% of 290,000 active; AID 2221; in the data active = inhibition above about 30%; inconclusive = no clear call, values can overlap the other calls;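 note: 0% = vehicle wells and 100% = reference inhibitor control wells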
Target sequence (P9WHJ3 whole entry, looked up): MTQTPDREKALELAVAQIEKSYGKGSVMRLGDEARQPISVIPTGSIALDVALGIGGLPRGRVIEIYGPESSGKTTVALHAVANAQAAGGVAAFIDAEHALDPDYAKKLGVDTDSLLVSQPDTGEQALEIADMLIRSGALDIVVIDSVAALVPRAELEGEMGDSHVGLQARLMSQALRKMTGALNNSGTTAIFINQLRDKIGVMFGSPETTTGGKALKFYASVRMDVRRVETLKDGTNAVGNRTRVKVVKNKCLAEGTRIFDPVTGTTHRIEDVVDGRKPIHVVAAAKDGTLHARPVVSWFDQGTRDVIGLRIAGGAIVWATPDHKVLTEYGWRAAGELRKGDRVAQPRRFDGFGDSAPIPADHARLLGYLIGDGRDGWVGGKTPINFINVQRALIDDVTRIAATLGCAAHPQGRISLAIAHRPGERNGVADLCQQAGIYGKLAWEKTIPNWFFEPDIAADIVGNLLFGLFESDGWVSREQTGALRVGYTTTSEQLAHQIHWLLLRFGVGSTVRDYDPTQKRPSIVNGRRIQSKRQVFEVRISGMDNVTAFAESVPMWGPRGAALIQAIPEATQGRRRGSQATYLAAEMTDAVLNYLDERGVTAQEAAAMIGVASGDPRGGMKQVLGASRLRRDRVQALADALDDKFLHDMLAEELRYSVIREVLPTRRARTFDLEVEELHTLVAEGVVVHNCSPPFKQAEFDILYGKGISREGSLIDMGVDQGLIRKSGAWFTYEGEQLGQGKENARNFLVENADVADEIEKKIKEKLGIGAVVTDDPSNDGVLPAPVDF
Mtb H37Rv: M. tuberculosis H37Rv growth inhibitors, H37Rv strain (AID 1626); M. tuberculosis H37Rv growth inhibition; higher % means a stronger effect; inhibition, % at 10 µM, or IC50 in µM where a hit was titrated; 0.95% of 220,000 active;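 active = confirmed in a dose series; inconclusive = inhibition above 80% but not taken into the dose series; inactive = below 80% or under 30% at every dose of the series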;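 note: bacteria incubated seven days before Alamar blue readout; 0% = bacteria only wells and 100% = bacteria with antibiotic wells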
Arbovirus inh: blocks arbovirus infection. AID 1251. arbovirus infection cell-based antiviral screen. inhibition, % at 10 µM. 0.37% of 200,000 active;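 active = inhibition from about 30%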;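 note: bluetongue infection of BSR cells; cell survival read as ATP light after 72 h; 0% = infected wells without compound and 100% = uninfected wells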
Arbovirus inh repeat: recorded beside Arbovirus inh, whose call it bears; inhibition, %; measured here: 10K subset replicate screen; many hits read low in the repeat;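 first of two repeat runs on a subset; 0% = infected and 100% = uninfected wells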
An asterisk follows results filed as active. Not all compounds are listed. The share of hits here may be higher or lower than overall.

Results for O=C(Nc1cccc(S(=O)(=O)N2CCOCC2)c1)c1cc2c(s1)CCC2 ?
Mtb betalactam: 13; YopH PTP inh: 15; RecA intein inh: -3.9; Mtb H37Rv: -6%; Arbovirus inh: -6

What do the screens show for `CCCc1nc2sc3ccccc3c(=O)c2c(=O)n1Cc1ccc(OC)cc1`?
Mtb betalactam: 15; RecA intein inh: 3.7; Mtb H37Rv: >100µM*

How did CC#CC(=O)N1CCCC(C(=O)c2ccc(SC)cc2)C1 (centres undefined) do in these assays?
Mtb betalactam: -6; RecA intein inh: 0.6

What do the screens show for `Cc1ccc(N2C(=O)CC(C)(C)CC2=O)cc1Cl`?
Mtb betalactam: -1; RecA intein inh: -1.4

What do the screens show for `Cc1ccc(S(=O)(=O)NCC(c2ccco2)S(=O)(=O)c2ccccc2)cc1` (centres undefined)?
Mtb betalactam: 0; RecA intein inh: -0.5

What do the screens show for `O=C(Nc1ccc(S(=O)(=O)NCCc2ccccc2)cc1)c1ccc(Br)o1`?
Mtb betalactam: 11; YopH PTP inh: -28; Mtb H37Rv: 9%; Arbovirus inh: 2

Results for Cc1ccc(CCNC(=O)C2CC(c3cccc(F)c3)=NO2)cc1 (centres undefined) ?
Mtb betalactam: -9; RecA intein inh: 2.2; Mtb H37Rv: -1%

Results for Cc1ccc(S(=O)(=O)NC(=O)Nc2cc(C)on2)cc1 ?
Mtb betalactam: -1; RecA intein inh: -3.5; Mtb H37Rv: 0%; Arbovirus inh: -1

Results for N#C/C=C/N1CCN(Cc2ccc3c(c2)OCO3)CC1 ?
Mtb betalactam: 2; RecA intein inh: 2.0

What do the screens show for `Cc1cc(C(=O)OCC(=O)Nc2cccnc2Cl)c2ccccc2n1`?
Mtb betalactam: 2; RecA intein inh: -0.9; Mtb H37Rv: 0%; Arbovirus inh: 3

What do the screens show for `Cc1cc(C)c(S(=O)(=O)N(C)CC(=O)NCc2cccnc2)c(C)c1`?
Mtb betalactam: 6; RecA intein inh: -0.6

How did CC(C)CC[n+]1ccccc1/C=C/c1ccc(N(C)C)cc1 do in these assays?
Mtb betalactam: 99; RecA intein inh: -0.5

How did C[C@H](N)c1nnc(SCC(=O)N(C)C)o1 do in these assays?
Mtb betalactam: -6; YopH PTP inh: -30; RecA intein inh: 1.1; Mtb H37Rv: -6%; Arbovirus inh: 2

What do the screens show for `Cc1cccc([C@@H]2[C@@H]3C(=O)N(Cc4ccccc4)C(=O)[C@@H]3[C@]3(Cc4ccccc4)C(=O)N(c4cccc(F)c4)C(=O)N23)c1`?
Mtb betalactam: -4; RecA intein inh: 1.3

Results for CCCn1nc(NC(=O)C2CCCO2)c2cc3ccc(C)cc3nc21 (centres undefined) ?
Mtb betalactam: 1; RecA intein inh: -103; Mtb H37Rv: 1%

The final two compounds of the section above come first, to join the parts.
What do the screens show for `Cc1cccc([C@@H]2[C@@H]3C(=O)N(Cc4ccccc4)C(=O)[C@@H]3[C@]3(Cc4ccccc4)C(=O)N(c4cccc(F)c4)C(=O)N23)c1`?
Mtb betalactam: -4; RecA intein inh: 1.3

Results for CCCn1nc(NC(=O)C2CCCO2)c2cc3ccc(C)cc3nc21 (centres undefined) ?
Mtb betalactam: 1; RecA intein inh: -103; Mtb H37Rv: 1%

How did CCCCn1c(N)c(N(CCOC)C(=O)c2cc3c(s2)CCC(C)C3)c(=O)[nH]c1=O (centres undefined) do in these assays?
Mtb betalactam: -6; RecA intein inh: 2.5

What do the screens show for `CC(=O)Nc1ccc(S(=O)(=O)Nc2ccc(S(=O)(=O)Nc3nccs3)cc2)cc1`?
Mtb betalactam: 1; RecA intein inh: -4.5

What do the screens show for `O=C(O)c1cccc(CN2C(=O)c3ccccc3C2=O)c1`?
Mtb betalactam: 0; RecA intein inh: -0.2

What do the screens show for `O=C(c1cccc(S(=O)(=O)NCc2ccccc2)c1)N1CCN(Cc2ccccc2)CC1`?
Mtb betalactam: 6; YopH PTP inh: 9; RecA intein inh: 6.1; Mtb H37Rv: -2%; Arbovirus inh: 25

What do the screens show for `CCn1nnc(NC(=O)c2c(OC)cccc2OC)n1`?
Mtb betalactam: -3; YopH PTP inh: -17; RecA intein inh: 3.1; Mtb H37Rv: -8%; Arbovirus inh: -2

Results for CCOC(=O)c1cnc2c(C)cccc2c1NCc1ccco1 ?
Mtb betalactam: 15; YopH PTP inh: -4; RecA intein inh: 2.3; Mtb H37Rv: 22%; Arbovirus inh: 27; Arbovirus inh repeat: 17

Results for COc1cccc(-n2c(SCC(N)=O)nc3ccccc3c2=O)c1 ?
Mtb betalactam: -3; RecA intein inh: 3.4; Mtb H37Rv: 0%; Arbovirus inh: 21

What do the screens show for `O=C(Cn1nnc2ccccc21)N/N=C\C=C\c1ccccc1`?
Mtb betalactam: -11; YopH PTP inh: -36; RecA intein inh: -0.1; Mtb H37Rv: -3%; Arbovirus inh: 6

Results for CCCCN1C(=O)C(O)=C(C(C)=O)C1c1ccc(OC)cc1OC (centres undefined) ?
Mtb betalactam: 5; YopH PTP inh: -20; RecA intein inh: 1.2; Mtb H37Rv: -1%; Arbovirus inh: -1

Results for Cc1ccc(S(=O)(=O)N2CCOC23CCN(S(=O)(=O)c2c(C)cc(C)cc2C)CC3)cc1 ?
Mtb betalactam: -7; RecA intein inh: 4.8

Results for CCc1sc(C(=O)NCCc2ccc(S(N)(=O)=O)cc2)cc1Br ?
Mtb betalactam: 4; RecA intein inh: 1.0; Mtb H37Rv: 3%; Arbovirus inh: 8

Results for CC(CCc1ccccc1)N1CCN(Cc2ccccc2)CC1 (centres undefined) ?
Mtb betalactam: -6; YopH PTP inh: -26; RecA intein inh: 3.6; Mtb H37Rv: 6%; Arbovirus inh: -5

What do the screens show for `CCOC(=O)N1CCN(C(=S)Nc2cc(S(=O)(=O)N3CCOCC3)ccc2Cl)CC1`?
Mtb betalactam: -3; RecA intein inh: 0.1; Mtb H37Rv: 3%; Arbovirus inh: -1

Results for Cc1ccc(N(C(=O)Cn2nnc3ccccc32)C(C(=O)NCc2ccco2)c2cccnc2)cc1 (centres undefined) ?
Mtb betalactam: 0; YopH PTP inh: -24; RecA intein inh: -4.1; Mtb H37Rv: -1%; Arbovirus inh: -2

How did Cc1ccc(C)c(NC(=O)NC2CCCCCCC2)c1 do in these assays?
Mtb betalactam: -6; RecA intein inh: -2.2

How did CN(C)c1ccc(-[n+]2c(-c3ccccc3)cc(-c3ccccc3)cc2-c2ccccc2)cc1 do in these assays?
Mtb H37Rv: inconclusive; Arbovirus inh: -23

What do the screens show for `S=C(NCC1CCCO1)N1CCN(c2ccc(Cl)c(Cl)c2)CC1` (centres undefined)?
Mtb betalactam: -5; RecA intein inh: 5.7; Mtb H37Rv: -2%; Arbovirus inh: -4

Results for CCC(CC)=NNc1ccc(S(N)(=O)=O)cc1[N+](=O)[O-] ?
Mtb betalactam: -1; RecA intein inh: 2.0; Mtb H37Rv: 2%

What do the screens show for `Cc1ccc2c(c1)c1c(n2CC(O)Cn2nc(C)c(Br)c2C)C(=O)CCC1` (centres undefined)?
Mtb betalactam: 0; YopH PTP inh: 1; RecA intein inh: 1.4; Mtb H37Rv: -5%; Arbovirus inh: -10

How did Cc1ccc(S(=O)(=O)N(CC(=O)Nc2ccc(F)cc2)C(=O)N2CCN(C)CC2)cc1 do in these assays?
Mtb betalactam: -1; RecA intein inh: 2.4

What do the screens show for `Cc1cc2ccccc2n2c(SCC(=O)Nc3ccc(S(=O)(=O)N4CCC(C)CC4)cc3)nnc12`?
Mtb betalactam: -2; YopH PTP inh: -18; RecA intein inh: 2.7; Mtb H37Rv: 7%; Arbovirus inh: 1

What do the screens show for `CCOc1ccc(-c2cc(C(=O)NCCCN3CCOCC3)c3ccccc3n2)cc1`?
Mtb betalactam: -8; RecA intein inh: 3.9

How did Cc1ccc(C(C(=O)NC2CCCC2)N(Cc2ccc(F)cc2)C(=O)c2csnn2)o1 (centres undefined) do in these assays?
Mtb betalactam: -6; YopH PTP inh: -14; Mtb H37Rv: 2%; Arbovirus inh: -4

Results for CN(C)/C=C(\c1cnc(Cl)s1)S(=O)(=O)c1ccccc1 ?
Mtb betalactam: -5; RecA intein inh: 6.0; Mtb H37Rv: 1%; Arbovirus inh: 1

Results for O=C(Cc1ccccc1Cl)N1CCN(c2ccccn2)CC1 ?
Mtb betalactam: -6; RecA intein inh: 0.0; Mtb H37Rv: -2%; Arbovirus inh: -2

How did COc1ccc(N(Cc2cc3cc(C)ccc3[nH]c2=O)C(C)=O)cc1 do in these assays?
Mtb betalactam: 0; RecA intein inh: 0.4

Results for S=C(NCc1ccco1)N1CCN(c2nc(-c3ccc(Cl)cc3)cs2)CC1 ?
Mtb betalactam: 30; RecA intein inh: 3.2; Mtb H37Rv: 6%; Arbovirus inh: 10

Results for COC(=O)C1=C(C)N(Cc2ccco2)C(=O)C1 ?
Mtb betalactam: -2; YopH PTP inh: 14; RecA intein inh: 0.7; Mtb H37Rv: -7%; Arbovirus inh: 14

Results for COc1cccc(-c2noc(-c3ccc4c(c3)OCO4)n2)c1 ?
Mtb betalactam: 5; RecA intein inh: 0.5; Mtb H37Rv: 1%; Arbovirus inh: -6

Results for Cn1cccc1CC(=O)NNC(=S)Nc1ccc(Cl)cc1 ?
Mtb betalactam: 0; YopH PTP inh: -24; RecA intein inh: 2.5; Mtb H37Rv: 0%; Arbovirus inh: 4

The list goes on, overlapping the part above by three compounds.
Results for COC(=O)C1=C(C)N(Cc2ccco2)C(=O)C1 ?
Mtb betalactam: -2; YopH PTP inh: 14; RecA intein inh: 0.7; Mtb H37Rv: -7%; Arbovirus inh: 14

Results for COc1cccc(-c2noc(-c3ccc4c(c3)OCO4)n2)c1 ?
Mtb betalactam: 5; RecA intein inh: 0.5; Mtb H37Rv: 1%; Arbovirus inh: -6

Results for Cn1cccc1CC(=O)NNC(=S)Nc1ccc(Cl)cc1 ?
Mtb betalactam: 0; YopH PTP inh: -24; RecA intein inh: 2.5; Mtb H37Rv: 0%; Arbovirus inh: 4

What do the screens show for `CCSC1=C(C#N)C(c2ccc(C)s2)CC(=O)N1` (centres undefined)?
Mtb betalactam: -4; YopH PTP inh: -58; RecA intein inh: -1.8; Mtb H37Rv: -4%; Arbovirus inh: 4; Arbovirus inh repeat: 2

Results for CCOc1ccc(C(=O)CCC(=O)Nc2ccc(C)cn2)cc1 ?
Mtb betalactam: 3; RecA intein inh: 1.3

How did O=C(CCN1C(=O)/C(=C/c2ccccc2Cl)SC1=S)NC1C=CS(=O)(=O)C1 (centres undefined) do in these assays?
Mtb betalactam: 6; RecA intein inh: 5.8

How did O=C(CSc1ncccn1)NN=C1CCCCCCC1 do in these assays?
Mtb betalactam: 0; YopH PTP inh: -22; RecA intein inh: 3.0; Mtb H37Rv: -4%; Arbovirus inh: 3

Results for CCCCCCCn1c(=O)c(C(=O)OC)c(N)c2ccccc21 ?
Mtb betalactam: -1; RecA intein inh: 1.2; Mtb H37Rv: 1%

What do the screens show for `Cc1noc2ncnc(Sc3ccc(Cl)cc3)c12`?
Mtb betalactam: 100; YopH PTP inh: -19; RecA intein inh: 13; Mtb H37Rv: inconclusive; Arbovirus inh: -32

Results for CSCCC(NC(=O)c1cccc(C)c1)C(=O)OCN1C(=O)c2ccccc2C1=O (centres undefined) ?
Mtb betalactam: -14; RecA intein inh: -1.8

Results for O=C(CSc1ncnc2sc(-c3ccccc3)cc12)NC1CCS(=O)(=O)C1 (centres undefined) ?
Mtb betalactam: -5; RecA intein inh: 0.4; Mtb H37Rv: 4%; Arbovirus inh: -8

Results for CCc1ccc(-n2c(C)cc(/C=N/NC(=O)OC)c2C)cc1 ?
Mtb betalactam: 68; YopH PTP inh: -8; RecA intein inh: 4.7; Mtb H37Rv: 28%; Arbovirus inh: 7

What do the screens show for `Clc1ccccc1CNc1ncnc2nc[nH]c12`?
Mtb betalactam: 1; YopH PTP inh: -33; RecA intein inh: 0.0; Mtb H37Rv: 13%; Arbovirus inh: -4

Results for Cc1cc(S(=O)(=O)n2[nH]c(=O)c(CCO)c2C)c(Cl)cc1Cl ?
Mtb betalactam: -4; RecA intein inh: -2.5

Results for COc1cccc(NC(=O)N2CCCC2C(=O)NC(C)C)c1 (centres undefined) ?
Mtb betalactam: 1; YopH PTP inh: 10; RecA intein inh: -4.5; Mtb H37Rv: -4%; Arbovirus inh: 6

How did COc1cc(NC(=O)c2ccccc2[N+](=O)[O-])ccc1NC(=O)C(C)C do in these assays?
Mtb betalactam: 4; YopH PTP inh: -19; RecA intein inh: -0.4; Mtb H37Rv: 7%; Arbovirus inh: -2

Results for CCOC(=O)c1cc(NC(=O)c2c(C)noc2C)cc(C(=O)OCC)c1 ?
Mtb betalactam: -5; YopH PTP inh: -20; RecA intein inh: -3.1; Mtb H37Rv: 3%; Arbovirus inh: 4

How did CCCC1(CCC)NC(=O)N(CC(=O)Nc2cccc(OC)c2)C1=O do in these assays?
Mtb betalactam: 5; YopH PTP inh: -49; RecA intein inh: -0.2; Mtb H37Rv: 2%; Arbovirus inh: 9
